Compound activity as filed in PubChem.
VDR inh = vitamin D3 receptor (human) inhibition; Potency, µM, without a hit: max response, negative = inhibition, usual class: inhibitors; 400,000 tested, 0.93% active; VDR-SRC2-3 peptide fluorescence polarization, 2 h; active means well fitted inhibition curve with a large enough effect; inconclusive means small, poorly fitted or top-dose-only effect, or another doubt; inactive means no such curve, though single readings can be large or run the other way; further: series mostly up to about 120 µM
Target sequence (P11473 whole entry, looked up): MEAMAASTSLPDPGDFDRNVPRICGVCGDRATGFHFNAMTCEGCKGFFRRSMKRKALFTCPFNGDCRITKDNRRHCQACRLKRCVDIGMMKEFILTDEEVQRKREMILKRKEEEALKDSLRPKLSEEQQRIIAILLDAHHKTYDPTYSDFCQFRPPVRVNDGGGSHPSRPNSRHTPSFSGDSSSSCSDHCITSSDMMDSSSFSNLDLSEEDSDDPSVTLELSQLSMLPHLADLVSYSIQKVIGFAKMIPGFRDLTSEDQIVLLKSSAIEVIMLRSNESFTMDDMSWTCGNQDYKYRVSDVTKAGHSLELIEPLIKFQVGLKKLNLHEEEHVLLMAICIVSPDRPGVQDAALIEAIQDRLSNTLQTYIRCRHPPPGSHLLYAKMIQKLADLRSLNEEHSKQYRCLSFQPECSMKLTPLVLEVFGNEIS
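VDR–SRC2-3 interaction, FP format. Cmpds 23 nl via pintool, brief spin, 2 h ambient incubation.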
* hit, by the source's call; ? = inconclusive; & = joins results of further samples. On the % scale 0 is the no-effect control and ±100 the full control effect; potency means the concentration at half of the fitted maximal effect. These rows are one share of the data; count on the stated rates, not on these rows.

> CC1(C)CC(=O)C(C=NCCN2CCN(C3CC(=O)N(c4ccc(Cl)c(Cl)c4)C3=O)CC2)=C(O)C1 (configuration not stated)
  VDR inh: 2%
> Cn1nnc2c(NCCc3ccccc3)ncnc21
  VDR inh: 9%
> CCOC(=O)N1CCN(S(=O)(=O)c2c[nH]c(C(=O)OC)c2)CC1
  VDR inh: 3%
> CCOc1ccc2c(c1)nc(SCC(=O)c1ccc(Br)s1)n2C
  VDR inh: 89µM*
> CC1CN(C(C)C)C(=S)N(c2ccccc2)C1=O (configuration not stated)
  VDR inh: -9%
> NS(=O)(=O)c1ccc(NC(=O)c2ccc(CSc3ccccc3)o2)cc1
  VDR inh: 4%
> Cc1ccc(C)c(-n2c(SCC(=O)N3CCC(C(=O)O)CC3)nnc2-c2cccc(Cl)c2)c1
  VDR inh: -19%
> CCN(CC)CCCNc1nc2cc(OC)c(OC)cc2c2nc(-c3ccccc3)nn12
  VDR inh: -19%
> c1ccc(-c2nc(-c3cccc4ccccc34)c(Nc3ccc4ccccc4c3)o2)cc1
  VDR inh: ?
> COc1cc(/C=N/n2c(-c3ccccc3)n[nH]c2=S)cc(OC)c1O
  VDR inh: 19%

VDR inh, hit marks shown above
> CCOc1ccc2c(c1)nc(SCC(=O)c1ccc(Br)s1)n2C
  VDR inh: 89µM*

(cont.)
> CC(Sc1ncccn1)C(=O)Nc1ccc2c(c1)OCCO2 (configuration not stated)
  VDR inh: -1%
> COc1ccc(CCNC(=O)c2cc(=O)[nH]c3ccc(S(=O)(=O)N4CCCCC4)cc23)cc1OC
  VDR inh: -1%
> O=C(NCc1cccc(Cl)c1)C1CCN(c2nn3cc(-c4ccc(F)cc4)nc3s2)CC1
  VDR inh: -2%
> CCOc1cc2c3c(c1)C(C)CC(C)(C)N3C(=O)C2=O (configuration not stated)
  VDR inh: ?
> Cc1noc(C)c1S(=O)(=O)N1CCC(C(=O)N2CCN(c3ccccc3Cl)CC2)CC1
  VDR inh: 16%
> O=C(NC1CC(=O)N(c2ccc(Cl)cc2)C1)c1cc2ccccc2o1 (configuration not stated)
  VDR inh: 17%
> Cc1ccn(-c2ccc(NC(=O)c3cccs3)cc2)n1
  VDR inh: -26%
> Cc1ccccc1NC(=O)/C(C#N)=C/c1ccc(-c2ccc(Cl)c(C(=O)O)c2)o1
  VDR inh: -10%
> CC(=O)c1ccc(N2CCN(C3CCC(C(C)(C)C)CC3)CC2)cc1 (configuration not stated)
  VDR inh: -3%
> Oc1ccc(-c2nc(-c3ccccc3)c(-c3ccc(Br)cc3)[nH]2)cc1
  VDR inh: -7%

> [O-]/C(=C(\C(=S)Nc1ccccc1F)[n+]1ccccc1)c1ccc(-c2ccccc2)cc1
  VDR inh: -30%
> CC1N(C(=O)N(C)C)CCN1S(=O)(=O)c1ccccc1 (configuration not stated)
  VDR inh: 22%
> COC(=O)c1sccc1S(=O)(=O)N(CC(=O)NCc1ccc(F)cc1)c1ccc(Cl)cc1
  VDR inh: 8%
> CCN1CCN(C(=O)NC(c2ccc(C)c(F)c2)C(Cl)Cl)CC1 (configuration not stated)
  VDR inh: -13%
> O=C1/C(=C/c2ccc(F)c(F)c2)CSc2sccc21
  VDR inh: 16%
> Cc1ccc(NC(=O)CN2C(=O)N/C(=C/c3cc(C)n(-c4ccc(C(=O)O)cc4)c3C)C2=O)cc1
  VDR inh: -6%
> Cc1ccc(-c2cc(C(=O)N/N=C/C=C/c3ccccc3)n[nH]2)o1
  VDR inh: -8%
> O=C(Nc1nnc(C23CC4CC(CC(C4)C2)C3)s1)c1ccc(N2C(=O)CCC2=O)cc1
  VDR inh: 2%
> COc1ccc(C2=NN(C(=O)c3ccccc3)C(c3ccc(OC)c(OC)c3)C2)c(O)c1 (configuration not stated)
  VDR inh: -25%
> Cc1cc(NS(=O)(=O)c2ccc(NC(=O)C(c3ccccc3)c3ccccc3)cc2)no1
  VDR inh: -2%

> CCOC(=O)c1c(NC(=O)CCl)sc(CN(C)C)c1-c1ccccc1
  VDR inh: -12%
> CCOc1ccc(N(C)S(=O)(=O)c2ccc(C)c(C(=O)OCC(=O)c3c[nH]c4ccccc34)c2)cc1
  VDR inh: -6%
> OCC1(Cc2ccccc2)CCN(Cc2cnn(-c3ccccc3F)c2)CC1
  VDR inh: 23%
> CC(C)CC(=O)N1CCN(Cc2cccc(Cl)c2)CC1
  VDR inh: -22%
> CCSc1nc2sc3c(c2c2[n+]1CC(CBr)O2)CCCC3 (configuration not stated)
  VDR inh: -25%
> CCN(CC)c1ccc(C(=O)OCC(=O)c2ccco2)cc1
  VDR inh: 2%
> CNc1cc(CSC)nc(SCc2ccc(Cl)cc2Cl)n1
  VDR inh: 14%
> CCOc1ccc(NC(=O)CN(C)C(=O)c2csc3c2CCCC3)cc1OCC
  VDR inh: -14%
> NCC(=O)NNC(=O)OCC1c2ccccc2-c2ccccc21
  VDR inh: 5%
> Cc1cc(C)cc(N=C(NO)c2cccc([N+](=O)[O-])c2)c1
  VDR inh: 9%

> O=C(CN1CCN(Cc2ccccc2F)C1=O)NC1CCCC1
  VDR inh: -15%
> OCC1(Cc2cccc(F)c2)CCN(Cc2cccc3nccnc23)CC1
  VDR inh: 9%
> COc1cc2oc(=O)c(CC(=O)NCc3ccc(OC)c(OC)c3)c(C)c2cc1Cl
  VDR inh: 6%
> CC(=O)c1ccc(NC(=O)/C(=C\c2ccco2)NC(=O)c2ccco2)cc1
  VDR inh: 13%
> Cc1ccc(OCC(=O)NC2CCCc3ccccc32)c(C)c1 (configuration not stated)
  VDR inh: -6%
> CCN(CC)c1nc(N)c(C#N)c(CC#N)c1C#N
  VDR inh: -2%
> Nc1nc(-c2ccccc2)c(CCCNc2ccccc2)c(=O)[nH]1
  VDR inh: 4%
> CCN(Cc1cnn(C)c1)Cc1nc(Cc2ccccc2Cl)no1
  VDR inh: 6%
> COc1cccc(OC)c1OCCCN1CCOCC1
  VDR inh: -8%
> COc1ccccc1NC(=O)c1cc(=O)[nH]c2ccccc12
  VDR inh: ?

> O=C(CSc1nc2ccccc2o1)N/N=C/c1ccc(C(=O)O)cc1
  VDR inh: 14%
> COc1ccc(-c2nc3ccccc3c(=O)n2N)cc1
  VDR inh: 2%
> C[C@H](CO)N1C[C@H](C)[C@@H](CN(C)Cc2ccc(C(=O)O)cc2)Oc2c(cccc2N(C)C)C1=O
  VDR inh: -19%
> COc1ccccc1N1C(=O)CC(N(O)c2ccccc2)C1=O (configuration not stated)
  VDR inh: -9%
> Cc1ccc(C(=O)O)cc1NC(=O)CCc1ccccc1
  VDR inh: -10%
> CC/C(C)=C1\SC(N2CCN(C(C)=O)CC2)=NC1=O
  VDR inh: 16%
> O=S(=O)(c1ccc2ccccc2c1)n1cnc2ccccc21
  VDR inh: 20%
> COc1cccc(-c2nnc(-c3ccccc3NC(=O)c3ccc(F)cc3F)o2)c1
  VDR inh: 3%
> CC1CCc2c(C(=O)Nc3ccccn3)csc2C1 (configuration not stated)
  VDR inh: 6%
> COCCCn1c(SCC(=O)Nc2nnc(C)s2)nnc1-c1ccoc1C
  VDR inh: 13%

> CC(=O)Nc1ccc(SCC(=O)O)cc1
  VDR inh: 3%
> O=C(Nc1ccc2oc(-c3cc(Br)ccc3Cl)nc2c1)c1cc2ccccc2o1
  VDR inh: -3%
> CC(=O)Nc1cc(S(=O)(=O)Nc2ccccc2C)c(C)cc1C
  VDR inh: 15%
> CC(C)c1ccc(C2CC(=O)Nc3cc4c(cc32)OCCO4)cc1 (configuration not stated)
  VDR inh: -6%
> CN1CCN(C(=O)c2cc3nc(-c4ccc(F)cc4)cc(C(F)(F)F)n3n2)CC1
  VDR inh: -10%
> COc1ccc(-c2sc3cc(OC)c(OC)cc3c2C#CC(C)(C)O)cc1
  VDR inh: 5%
> CCC(C)c1ccccc1NC(=O)c1[nH]c(C)c(C(C)=O)c1C (configuration not stated)
  VDR inh: 8%
> COc1ccc(-c2c3c(nc4sc(C(=O)Nc5cc(C)on5)c(N)c24)CCC3)cc1
  VDR inh: -8%
> COc1ccccc1CNC(=O)C(C)NS(=O)(=O)c1ccc(C)cc1 (configuration not stated)
  VDR inh: 13%
> CC(C(=O)NC1CCCCC1)N1C(=O)c2cccc3cccc1c23 (configuration not stated)
  VDR inh: -6%

> C=CCOc1ccc2nnc(C)n2n1
  VDR inh: -2%
> CCCC(=O)Nc1nnc(-c2ccc(Cl)s2)o1
  VDR inh: -3%
> O=c1c2ccccc2ncn1CCCSc1ccccc1
  VDR inh: 16%
> CCOC(=O)c1cc(-c2ccccc2)n(CC(=O)Nc2ccc(OC)cc2)c1C
  VDR inh: 2%
> COc1ccc(C(=O)Oc2cc(/C=N/NS(=O)(=O)c3ccc(C)cc3)ccc2OC)cc1
  VDR inh: 0%
> CCOC(=O)c1cc(NC(=O)Nc2ccc(Br)cc2)c(C)nc1C
  VDR inh: -14%
> CC(=O)c1ccc(NC(=S)N(CCCN(C)C)Cc2ccccc2)cc1
  VDR inh: 3%
> COC(=O)c1ccccc1NC(=O)NCc1c(C)nn(C)c1C
  VDR inh: 3%
> COc1ccccc1Cn1nnc2c(=O)[nH]c(C3CCN(C(=O)c4ccccc4Cl)CC3)nc21
  VDR inh: 2%
> COc1ccc(C2Nc3ccccc3C(=O)N2c2ccc(F)cc2)cc1COc1ccc(NC(C)=O)cc1 (configuration not stated)
  VDR inh: 0%

> COc1ccc(NC(=O)CC2SC(N3CCCCC3)=NC2=O)cc1OC (configuration not stated)
  VDR inh: 3%
> CCN(CC)CCn1c(N)nc2ccccc21
  VDR inh: 4%
> Cc1coc(=N)n1CC(=O)c1ccc(Cl)cc1
  VDR inh: 7%
> Fc1cccc(NCCc2c[nH]c3ccccc23)n1
  VDR inh: -23%
> C=CC1=C2C=C(C3CC3)N(CCCN(CC)CC)C=C2C(=O)C(C)(OC(=O)c2ccco2)C1=O (configuration not stated)
  VDR inh: -15%
> CC[C@]12c3[nH]c4ccc(OC)cc4c3CCN1C(=O)C(CC(=O)NCCc1ccccn1)C[C@@H]2C(=O)N1CCN(C(=O)c2ccco2)CC1 (some centres not stated)
  VDR inh: 2%
> NC(=NC1CCCCC1)c1ccc(Cl)cc1
  VDR inh: 6%
> COC(=O)Cn1c(=NC(=O)c2ccc(Cl)s2)sc2cc(C)ccc21
  VDR inh: -13%
> COc1cccc(C2=Nn3c(nnc3-c3ccccc3O)SC2)c1
  VDR inh: ?
> COc1ccc(-c2cc(=Nc3ccc(C(=O)O)cc3)c3cc(C)ccc3o2)cc1
  VDR inh: 2%

In a second layout: results already given
SMILES | VDR inh
Fc1cccc(NCCc2c[nH]c3ccccc23)n1 | -23%
COC(=O)Cn1c(=NC(=O)c2ccc(Cl)s2)sc2cc(C)ccc21 | -13%
C=CC1=C2C=C(C3CC3)N(CCCN(CC)CC)C=C2C(=O)C(C)(OC(=O)c2ccco2)C1=O (configuration not stated) | -15%
COc1cccc(C2=Nn3c(nnc3-c3ccccc3O)SC2)c1 | ?

Next entries follow:
> CC(C)Cc1nn2c(=O)cc(COC(=O)c3cccc(NC(=O)CCc4ccccc4)c3)nc2s1
  VDR inh: 12%
> COc1ccc(CN2CCNC(=O)C2CC(=O)N(C)Cc2nccn2C)cc1OC (configuration not stated)
  VDR inh: 17%
> CC(C)(C)c1cc(CN(CCO)CCO)c(O)c(C(C)(C)C)c1
  VDR inh: 6%
> O=c1c2cnn(-c3ccccc3)c2nc(-c2cccs2)n1-c1ccc(Cl)cc1
  VDR inh: 1%
> COc1ccc(C(=O)CCc2ccccc2)c(O)c1
  VDR inh: ?
> Cc1nc(SCC(=O)N2CCOCC2)c2ccsc2n1
  VDR inh: -13%
> Cc1ccc(NC(=O)C2(c3ccccc3)CC2(Cl)Cl)cc1C (configuration not stated)
  VDR inh: -26%
> O=C(CCNC(=O)c1ccc([N+](=O)[O-])cc1)NNC(=O)c1ccccc1F
  VDR inh: 9%
> CC(C)Oc1ccccc1/C=N/NC(=O)C1CC1
  VDR inh: -7%
> C=CCn1c(=O)c2c(nc3n2CCN3c2cccc(Cl)c2C)n(C)c1=O
  VDR inh: -9%

> Cc1ccc(C(C)C)c(OCCNC(=O)c2cncc(Br)c2)c1
  VDR inh: -5%
> COc1cc(C)c(CN2CCC(n3nccc3NC(=O)C3CC3)CC2)cc1C
  VDR inh: -17%
> CCN(CC)CCNC(=O)c1ccc(NC(=O)c2ccc(C(=O)c3ccccc3)cc2)cc1
  VDR inh: 3%
> CC(C)CCNc1nc(N)c([N+](=O)[O-])c(NC2CCCCC2)n1
  VDR inh: -6%
> Cc1cc(C)c(S(=O)(=O)NCc2csc(C)n2)c(C)c1
  VDR inh: 19%
> Cc1nnc(SC(C)C(=O)Nc2ncc(Cl)cc2Cl)n1Cc1ccccc1 (configuration not stated)
  VDR inh: 8%
> O=c1[nH]cnc2c1ncn2[C@H]1C[C@H](O)[C@@H](CO)O1
  VDR inh: ?
> Cc1nc2c(C)cccn2c1C(=O)N/N=C/c1ccccc1[N+](=O)[O-]
  VDR inh: -3%
> COc1ccc(CCNC(=O)CS(=O)Cc2nc(-c3ccccc3F)oc2C)cc1OC (configuration not stated)
  VDR inh: -20%&-11%
> CCN1CCN(c2nn3c(=O)c4ccccc4nc3c3ccccc23)CC1
  VDR inh: -1%

> O=C(CNc1ccccc1)N/N=C/c1ccc([N+](=O)[O-])o1
  VDR inh: -7%
> Cc1ccccc1CS(=O)(=O)Cc1ccc(C(=O)NCCCN2CCOCC2)o1
  VDR inh: -3%
> Cc1ccc(C)c(NC(=O)c2cc(S(=O)(=O)N3CCCCC3)ccc2N2CCOCC2)c1
  VDR inh: -9%
> COc1ccc(S(=O)(=O)NCc2cccn2Cc2cc(C)ccc2C)cc1OC
  VDR inh: 9%
> O=C(/C=C/c1ccc(Cl)cc1)Nn1c(-c2cccs2)nc2ccccc2c1=O
  VDR inh: 4%
> Cc1ccccc1CN1CCc2cc([N+](=O)[O-])ccc21
  VDR inh: -2%
> CC(=O)Nc1ccc(S(=O)(=O)N[C@@H](C)C(=O)OCc2cc([N+](=O)[O-])cc3c2OCOC3)cc1
  VDR inh: 1%
> CS(=O)(=O)c1ccc(-c2nnn(CC(=O)N3CCCCC3)n2)cc1
  VDR inh: -5%
> CC(=O)/C(C#N)=C1\NC(=O)C(Cc2ccccc2)S1 (configuration not stated)
  VDR inh: -22%
> Cc1oc(-c2cccc(Cl)c2)nc1CN1CCCC(C(=O)NCCc2ccc(Cl)cc2)C1 (configuration not stated)
  VDR inh: -11%
